HPGD block – blocks human HPGD enzyme activity | purified HPGD, NADH fluorescence kinetic, PGE2 substrate | Potency, µM, without a hit: at the top dose activity change, negative = inhibition, actives largely listed as inhibitors | 4.3% of 150,000 active | AID 894; active = well fitted inhibition curve with a large enough effect (not every such curve was filed as active); inconclusive = small, poorly fitted or top-dose-only effect, or another doubt; inactive = no such curve, though single readings can be large or run the other way;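 also: top concentration of the series not given in the record; plate controls included wells without enzyme; inactives centre near -10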
Target sequence (P15428 whole entry, looked up): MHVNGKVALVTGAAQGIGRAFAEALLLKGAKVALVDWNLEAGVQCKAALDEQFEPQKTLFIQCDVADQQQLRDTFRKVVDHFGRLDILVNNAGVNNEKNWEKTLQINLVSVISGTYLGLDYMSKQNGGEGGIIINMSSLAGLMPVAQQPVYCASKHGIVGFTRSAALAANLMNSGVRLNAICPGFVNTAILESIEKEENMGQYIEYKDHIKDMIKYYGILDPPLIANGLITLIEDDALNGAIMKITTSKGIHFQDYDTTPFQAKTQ
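20 nM HPGD preincubated 15 min at room temperature with compound in 50 mM Tris-HCl pH 8, 0.01% Tween 20. Started with 1 mM NAD+ and 30 uM prostaglandin E2; NADH fluorescence (360/450 nm) read 5 times over 30-s intervals, last minus first.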
* hit, by the source's call; ? = inconclusive. % is scaled to controls: 0 for no effect and ±100 for the full control effect; potency is read from the fitted curve at half-maximal effect. An excerpt, so the mix of outcomes need not match the whole.

SMILES	HPGD block
CCOc1cccc(C(=O)N(Cc2ccco2)C2CCS(=O)(=O)C2)c1 (configuration not stated)	-5.0%
COc1ccc2c(c1)O[C@@H](c1ccc3c(c1)OCO3)[C@H](OC(=O)N[C@H]1CCCc3ccccc31)C2=O	4.0%
CNCc1ccccc1Sc1cccc(O)c1	1.3%
CCOC(=O)Cc1csc2nc3sc(C)c(C)c3c(=O)n12	-10.6%
COc1cccc(=O)c2c(C)oc(C)c12	-20.5%
Cc1ccc2nc3sc(C(=O)Nc4ccc(N5CCOCC5)cc4)c(N)c3cc2c1	-10.3%
Cc1cc(C)c2nc(N)sc2c1	-4.6%
COc1ccccc1CNC(=O)c1cc2c(C)nn(Cc3ccc(F)cc3)c2s1	-4.5%

Some of these compounds in order of their number in HPGD block, highest first:
SMILES	HPGD block
Cc1cc(C)c2nc(N)sc2c1	-4.6%
Cc1ccc2nc3sc(C(=O)Nc4ccc(N5CCOCC5)cc4)c(N)c3cc2c1	-10.3%
CCOC(=O)Cc1csc2nc3sc(C)c(C)c3c(=O)n12	-10.6%

Continuation:
SMILES	HPGD block
COc1ccccc1C(=O)n1nc(C)cc1C	-1.0%
O=C(N/C(=C\c1cn(-c2ccccc2)nc1-c1ccccc1)C(=O)N1CCOCC1)c1ccccc1	-8.8%
O=C(/C=C/c1ccc2c(c1)OCO2)c1ccc(F)cc1	-17.8%
Oc1oc(-c2cccc3ccccc23)nc1/C=N/c1nccs1	-4.0%
CCOc1ccc(NC(=O)C23CC4CC(C2)CC(c2ccccc2)(C4)C3)cc1	1.2%
C=C(C)C1CC=C(C)/C(=N/NC(=O)CNc2ccc(C)cc2C)C1 (configuration not stated)	4.4%
CC(=O)Nc1ccc(Nc2nc(C)c([N+](=O)[O-])c(Nc3ccccc3)n2)cc1	-11.4%
COc1ccc(S(=O)(=O)N2CCC[C@H]2C(=O)NC2=NCCS2)cc1	-4.8%
CCC(NS(=O)(=O)c1ccc(C)cc1)C(=O)O (configuration not stated)	-7.4%
O=C(Nc1cc(Sc2ccccn2)cc([N+](=O)[O-])c1)c1ccc([N+](=O)[O-])cc1	-19.6%
N/N=C1/c2ccccc2N[C@H]1OC(=O)Nc1ccccc1	-4.5%
CN(CCNC(=O)c1cn(C)c2ccc(S(=O)(=O)N(C)C)cc2c1=O)CCc1ccccc1	-5.1%
CCOc1ccc(OCC(=O)NCCc2nc3ccccc3[nH]2)cc1	-3.4%
CCC(C)NC(=O)C1CCC(=O)N(c2ccc3c(c2)OCO3)C1c1ccc(OC)cc1 (configuration not stated)	-1.1%
CCCCCCC(=O)Nc1nnc(CC)s1	1.1%
NC(=O)c1c(NC(=O)CN2CCOCC2)sc2c1CCC2	-13.4%
CCOC(=O)N1CCN(C(=O)C(=O)Nc2ccc3nc4n(c(=O)c3c2)CCCCC4)CC1	-13.9%
CC(C)CC(NC(N)=O)C(=O)OCC(=O)NC(=O)NC1CCCC1 (configuration not stated)	-6.6%
COC(=O)C(C(=O)OC)C(C)C(C(=O)OC)C(=O)OC	0.6%
COC(=O)c1nn(-c2ccccc2)ccc1=O	-23.5%
O=C(OCc1ccccc1)c1cccc(-c2nnc(-c3ccccc3)o2)c1	-20.9%
O=C(Cn1c(-c2cncs2)nc2ccccc21)NCc1ccccc1	-21.8%
O=C(CSc1ncn[nH]1)Nc1ccc2c(c1)OCCO2	-1.0%
O=C(Nc1ncc2c(n1)CC(c1ccco1)CC2=O)c1ccc(Cl)cc1 (configuration not stated)	-18.6%

Taken from above:
O=C(Cn1c(-c2cncs2)nc2ccccc21)NCc1ccccc1 | HPGD block = -21.8%
CCOC(=O)N1CCN(C(=O)C(=O)Nc2ccc3nc4n(c(=O)c3c2)CCCCC4)CC1 | HPGD block = -13.9%
COC(=O)C(C(=O)OC)C(C)C(C(=O)OC)C(=O)OC | HPGD block = 0.6%

A portion taken from the entries so far, as a working copy:
SMILES	HPGD block
CC(C)CC(NC(N)=O)C(=O)OCC(=O)NC(=O)NC1CCCC1 (configuration not stated)	-6.6%
COC(=O)C(C(=O)OC)C(C)C(C(=O)OC)C(=O)OC	0.6%
COC(=O)c1nn(-c2ccccc2)ccc1=O	-23.5%
O=C(OCc1ccccc1)c1cccc(-c2nnc(-c3ccccc3)o2)c1	-20.9%

Next section.
SMILES	HPGD block
CCc1nnc(NC(=O)c2ccc(-c3ccccc3Cl)o2)s1	?
CCOC(=O)N1CCN(S(=O)(=O)c2cc(Cl)ccc2Cl)CC1	-1.1%
O=C(c1ccco1)N1CCCSC1=Nc1ccccc1	-17.2%
Cn1c(-c2ccc3ccccc3n2)nc2cnccc21	-18.3%
COc1ccc(NC(=O)c2c(SC)nsc2SC)cc1	-16.0%
COc1ccc(C(=O)OC(C)CN2CCN(C)CC2)cc1OC (configuration not stated)	-10.4%
COc1ccc(NC(=O)N2CCCC2C(=O)Nc2ccc(C)cc2)cc1 (configuration not stated)	-5.6%
O=C(CSc1nnc(-c2ccc(O)cc2)n1Cc1ccco1)c1ccccc1	-25.4%
CCN(CC)CCCNC(=S)N(Cc1ccco1)Cc1cc2cc3c(cc2[nH]c1=O)OCCO3	-21.7%
O=C(Nc1ccccc1C(F)(F)F)N1CCN(C(c2ccccc2)c2ccccc2)CC1	-15.3%
Cc1sc2nc(SCC(=O)NCc3ccco3)n(C)c(=O)c2c1C	-0.8%
O=C(CCCC(=O)NCc1ccccc1)NCc1ccccc1	2.4%
CNc1oc(/C=C/c2ccccc2)nc1C#N	?
O=C(CCS(=O)(=O)c1ccc(Br)cc1)N1CCN(c2ccccc2Cl)CC1	-0.4%
C=C(C)C(=O)OCCCCCCOc1ccc(C(=O)O)cc1	-5.9%
Cc1nn2c(nc(N3CCCCC3)c3ccccc32)c1C=O	?
OCC1OC(Oc2cccc3cccnc23)C(O)C(O)C1O (configuration not stated)	-9.8%
CCC1CCCCN1c1cc(C)nc2cc(-c3cccc(C)c3)nn12 (configuration not stated)	?
CCOc1c2ccc(C(=O)NCc3ccc(OC)cc3)cc2nn1CCOC	?
OC[C@@H]1[C@@H](c2ccc(Cl)cc2)C(c2ccccc2)=NN1c1ccccc1	?
CCOC(=O)CN1C(=O)S/C(=C/c2ccc3c(c2)n(C)c(=O)n3C)C1=O	-19.5%
c1ccc(C2=NCCCN2)cc1	-7.3%
O=C(NCc1ccco1)c1ccc(S(=O)(=O)c2cccc(S(=O)(=O)N3CCOCC3)c2)cc1	-4.4%
O=C(CCN1C(=O)c2ccncc2C1=O)Nc1ccc2c(c1)OCCO2	-7.8%
Cc1cccc(NC(=O)c2cc(N3C(=O)CCC3=O)ccc2Cl)n1	-6.0%
COc1ccc(NC(=O)NC23CC4CC(CC(C4)C2)C3)cc1OC	-14.8%
NC(=O)c1ccc(F)cc1	-2.0%
CC(C)[C@H](NC(=O)Nc1ccc2c(c1)OCCO2)C(=O)O	-16.8%
COc1ccc(-c2cnn3c4c(c(C)nc23)CCN4C2CCCC2)cc1OC	-28.6%
CCSc1nc2[nH]ncc2c(=O)[nH]1	-8.5%
O=C(OCc1nnc(-c2ccc(Cl)cc2)o1)c1ccc(=O)n(Cc2ccccc2)n1	-17.1%
Nc1ccc2c3c(cccc13)C(=O)NC2=O	-6.4%

Further compounds follow.
Molecule	HPGD block
Cc1ccc(C)c(Cn2nnc3c(=O)[nH]c(C4CCCN(C(=O)CC(C)C)C4)nc32)c1 (configuration not stated)	10µM*
COc1ccc([N+](=O)[O-])cc1NC(C)C	-12.1%
Cn1c(=O)c2[nH]c(CN(Cc3ccccc3)Cc3ccccc3)nc2n(C)c1=O	-14.0%
O=c1cc(-c2ccccc2)nc(N2CCN(Cc3ccccc3)CC2)[nH]1	-28.5%
CN(C)c1ccc(-n2cccc2/C=N/n2cnnc2)cc1	-4.1%
O=C(NCCCn1ccnc1)C(=O)NCC1OCCCN1S(=O)(=O)c1ccccc1 (configuration not stated)	-5.5%
Cc1cc2nc([C@H](C)C(=O)c3ccc(Cl)cc3)c(=O)[nH]c2cc1C	-10.5%
CCCc1nc(SCC(=O)Nc2nc3c(s2)CCCC3)c2ccccc2n1	-10.1%
CN(Cc1ccccc1)C(=O)c1ccc2c(c1)OCO2	14.1µM*
O=C(NCCc1nc2ccccc2[nH]1)/C(=C/c1ccc2c(c1)OCO2)NC(=O)c1ccc(Cl)cc1Cl	?
Cc1c(C(=O)N(C)C)c2cc(Cl)ccc2n1O	-5.7%
CC(Sc1nc(N2CCOCC2)c2c(c1C#N)CC(C)(C)OC2)C(=O)Nc1ccccc1 (configuration not stated)	?
CC(=O)c1cccc(N(CC(=O)N2CCCCC2)S(C)(=O)=O)c1	-3.8%
CC1=NN(C(=O)c2c(Br)cnn2C)C(O)(C(F)(F)F)C1 (configuration not stated)	-14.8%
C=CCc1ccc(OCCCN2CCCC(C)C2)c(OC)c1 (configuration not stated)	-11.1%
O=C(CSc1ccccn1)Nc1nc2ccc(Br)cc2s1	-8.4%

Overlap with the part before: two compounds, followed by the next part.
Molecule	HPGD block
C=CCc1ccc(OCCCN2CCCC(C)C2)c(OC)c1 (configuration not stated)	-11.1%
O=C(CSc1ccccn1)Nc1nc2ccc(Br)cc2s1	-8.4%
O=c1[nH]c2ccccc2n1CCC1CCCCC1	?
COc1ccc(-n2nnc3c(=O)n(Cc4cc(C)ccc4C)cnc32)cc1	-23.9%
CCN(CC)C(=O)c1sc(NC(=O)Cc2cccs2)c(C#N)c1C	-17.1%
CCCCCC1C(=O)CCC1CC(=O)O (configuration not stated)	-9.6%
O=C(O)/C=C/C(=O)N(Cc1ccccc1)Cc1ccco1	-1.9%
Cn1c(N)c(C(=O)COC(=O)c2cc(-c3ccccc3)nc3ccccc23)c(=O)n(C)c1=O	-6.2%
FC(F)(F)c1cc(-c2cccs2)nc(-n2cc(Br)cn2)n1	?
O=[N+]([O-])c1cccc(/C=N/n2c(COc3ccccc3)n[nH]c2=S)c1	3.98µM*
Cc1cc2nc(SCC(=O)N(C)C)c3c(c2cc1C)CCCC3	-23.6%
CSc1nc2nccc(-c3ccc(Oc4ccccc4)cc3)n2n1	?
COc1ccccc1NC(C)C(=O)Nc1ccc(C(C)=O)cc1 (configuration not stated)	-17.0%
COc1ccc(-c2nc(NC(=O)c3ccccc3)sc2-c2ccc([N+](=O)[O-])cc2)cc1	-11.7%
NCCC(=O)N[C@@H](Cc1cnc[nH]1)C(=O)O	-9.9%
CCC(C(=O)Nc1cc(C(=O)Nc2cc(C)ccn2)ccc1Cl)c1ccccc1 (configuration not stated)	?
COC(=O)CSc1nnc(-c2cccs2)n1-c1ccc(Cl)cc1	-1.3%
COc1ccccc1CN=c1c([N+](=O)[O-])nn(-c2ccc3c(c2)OCCO3)n1O	0.9%
Cc1ccc(/C=C/C(=O)NC2=NCCS2)cc1	-12.9%
CCOC(=O)C1=C(C)NC2=C(C(=O)CC(c3ccc(OC)c(OC)c3)C2)C1c1ccc(C)o1 (configuration not stated)	-15.7%
Cc1nc2ncnn2c(N2CCN(C(c3ccccc3)c3ccccc3)CC2)c1C	-6.3%
O=C(NC(Cc1ccccc1)C(=O)O)C1CCCCC1 (configuration not stated)	-3.7%
Cn1c(=O)c(C(=O)COC(=O)c2cc(-c3ccco3)nc3ccccc23)c(N)n(Cc2ccccc2)c1=O	?
CCOC(=O)C1(CC)NC(c2ccco2)C2C(=O)N(c3ccc(C)cc3)C(=O)C21 (configuration not stated)	-12.7%
CSCCC1C(=O)OC2(C)CC(C)(C)NC(=S)N12 (configuration not stated)	-9.9%
O=C1CC(c2ccc(Br)cc2)NC(c2ccc(Br)cc2)C1c1ccccc1 (configuration not stated)	-5.8%
O=C(NC1CCCC1)C1CCCN(S(=O)(=O)c2cnc[nH]2)C1 (configuration not stated)	-5.7%
CCOC(=O)C1CCN(Cc2cnc(NC(=O)OC)s2)CC1	-2.7%
O=C(Cc1noc2ccccc12)Nc1ccc2ccccc2c1	-11.1%
COc1ccc(CNC(=O)Nc2cccc3ccccc23)cc1	-25.3%
COC(=O)c1c(-c2cccnc2)csc1NC(=O)c1cc(C)on1	-21.8%
Cc1cc(NC(=O)CSc2ccc(-c3nc4cc(C)c(C)cc4[nH]3)cn2)no1	?
c1cncc(-c2ccc3ncnc(N4CCNCC4)c3c2)c1	-19.6%
CCOc1ccc(CN(C)CC(=O)Nc2ccc([N+](=O)[O-])cc2Cl)cc1	-11.8%
COc1ccccc1N1CCN(C(=O)CSc2ncnc3scc(-c4ccccc4)c23)CC1	-11.1%
Cc1ccc(NC2=CC(=O)OC(C)C2)cc1 (configuration not stated)	-10.0%
Cc1ccc(NC(=O)CS(=O)CC(=O)NCCCN(C)c2ccccc2)cc1 (configuration not stated)	-7.3%
COc1ccc2cnn(CCOc3cc(C)ccc3C(C)C)c(=O)c2c1OC	-15.7%
O=C(CSc1nnc(SCc2ccc(Cl)cc2)s1)N/N=C/c1c(Cl)cccc1Cl	1.9%
CCCOc1ccc(CCN2CCC(=O)NC2=O)cc1C	-24.9%
CCC(C)C1NC(=S)N(C2CCCCC2)C1=O (configuration not stated)	-20.8%
C=CC1=C2C=C(C3CC3)N(Cc3ccco3)C=C2C(=O)C(C)(OC(=O)c2ccco2)C1=O (configuration not stated)	-2.2%
CC(=O)c1cccc(N=C2NC(=O)C(CO)(CO)S2)c1	-12.1%
Cc1ccc(NC(=O)C2CCCN(S(=O)(=O)c3ccc4c(c3)oc(=O)n4C)C2)nc1 (configuration not stated)	-12.7%
Cc1cc(C2=NNC(=NCc3ccccc3)SC2)c(C)n1-c1c(C)n(C)n(-c2ccccc2)c1=O	-12.4%
COc1ccc(CN2C(=O)NC3(CCOc4ccccc43)C2=O)cc1F (configuration not stated)	-4.0%
O=C(COc1cc(O)c2c(=O)cc(-c3ccccc3)oc2c1)c1ccccc1	-11.5%
COC(=O)c1sccc1-c1ccc(C(=O)Nc2ccccc2)o1	?
Cc1c(NC(=O)c2cc(-n3cnnc3)ccc2Cl)cccc1-c1nc2ccccc2s1	-19.7%
O=C(Nc1cccc(Oc2ccc3c(c2)C(=O)NC3=O)c1)c1ccco1	20µM*
